Compound activity (PubChem BioAssay)
PABP polyA inh: blocks human PABP binding to poly(A) RNA; fluorescence polarization; P11940; 290,000 tested, 1% active; inhibition, % at 35 µM;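 active = 50% or more with normal probe brightness, or confirmed in later tests; inconclusive = above 50% with abnormal brightness, or retests that disagree; inactive = below 50% or failed in later tests; about a fifth of its hits are not listed in these tables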;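 note: calls also rest on retests at 20 µM and on dose response follow-up; controls were probe without protein and protein plus probe with vehicle; some compounds called inactive have numbers as strong as hits; many hits fall short of the cut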
Target sequence (P11940 whole entry, looked up): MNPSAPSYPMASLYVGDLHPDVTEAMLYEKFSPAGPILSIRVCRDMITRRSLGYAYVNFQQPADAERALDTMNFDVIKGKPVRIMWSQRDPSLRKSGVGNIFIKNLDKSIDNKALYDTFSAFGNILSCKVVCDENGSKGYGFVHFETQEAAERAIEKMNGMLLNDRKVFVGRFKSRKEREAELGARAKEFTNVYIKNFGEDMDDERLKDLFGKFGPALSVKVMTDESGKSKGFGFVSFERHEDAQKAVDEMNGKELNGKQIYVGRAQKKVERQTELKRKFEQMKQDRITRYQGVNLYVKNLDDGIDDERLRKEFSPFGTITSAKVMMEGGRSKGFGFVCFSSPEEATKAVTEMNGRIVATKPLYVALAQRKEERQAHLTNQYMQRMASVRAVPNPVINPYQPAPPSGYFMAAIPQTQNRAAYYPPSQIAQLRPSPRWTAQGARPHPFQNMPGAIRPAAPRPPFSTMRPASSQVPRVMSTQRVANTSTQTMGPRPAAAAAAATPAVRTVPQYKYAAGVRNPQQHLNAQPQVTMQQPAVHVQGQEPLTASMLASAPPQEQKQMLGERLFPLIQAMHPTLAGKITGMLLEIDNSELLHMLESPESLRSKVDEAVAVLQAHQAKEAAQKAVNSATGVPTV
MT1-MMP act inh: blocks activation of human MT1-MMP. HT1080 RFP-PRO-GFP cells, GFP/RFP ratio fluorescence, overnight; percent of plate control window, DMSO zero. P50281. 360,000 tested, 0.061% active. GFP/RFP ratio change, % at 20 µM;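 active = GFP/RFP ratio change of at least 30% with cell ATP level not reduced by more than half and red fluorescence within 50% of control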; note: strong numbers were not always called active
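Assay system – RFP-PRO-GFP reporter HT1080 cells · Compound dosing – single dose of 20 µM compound, 1% DMSO final · Incubation – overnight compound exposure at 37 °C · Measure – GFP/RFP fluorescence ratio · Benchmarks – DMSO wells and RFP-L50D-GFP cells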
CSC inhib: cancer stem cell inhibition | 300,000 tested, 1.1% active | cancer stem cell-like cells viability, luminescence | inhibition, % at 7.5 µM;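 active = mean at 75% or more and at least half the replicates too; inconclusive = mean and replicates disagree; tested in HMLE shEcad cells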;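 note: 0% = median of negative and 100% = median of positive control wells; the first replicate is given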
HIV Env fusion: blocks HIV Env-driven cell-cell fusion; 360,000 tested, 1.1% active; inhibition, % at 12.3 µM; HeLa-JRFL Env/CEM21 cell fusion, luciferase; AID 651610;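 active = mean replicate inhibition score of at least 50 and every replicate individually at or above 50; inconclusive = only one of the two criteria met; inactive = mean below 50 and not all replicates reaching 50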;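 note: 0% = plate neutral controls and 100% = maraviroc near 300 nM; one replicate is shown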
UUG fidelity: yeast start codon fidelity modulation. 350,000 tested, 0.13% active. S. cerevisiae UUG-firefly luciferase reporter, luminescence/redox ratio. AID 602363. activity score, % at 18.7 µM;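 active = replicate mean at a twofold rise or more, about +100% in these data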;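 note: firefly luciferase made from a UUG start codon reports start codon fidelity; reporter light over untreated wells divided by growth signal over untreated wells; some hits fall short of that in this replicate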
Rce1 inhib: inhibitors of yeast Ras-converting enzyme; yeast membranes, quenched prenylated peptide cleavage fluorescence; calls only; Q03530; 290,000 tested, 0.27% active;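 active = fall in fluorescence gain of 50% or more versus controls, with final raw signal at or below 3038400; inconclusive = same 50% fall but final raw signal above 3038400; inactive = fall in fluorescence gain under 50%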;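 note: plate controls were neutral control wells for no effect and wells lacking membranes for full effect; tested at 10 µM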
Target sequence (Q03530 whole entry, looked up): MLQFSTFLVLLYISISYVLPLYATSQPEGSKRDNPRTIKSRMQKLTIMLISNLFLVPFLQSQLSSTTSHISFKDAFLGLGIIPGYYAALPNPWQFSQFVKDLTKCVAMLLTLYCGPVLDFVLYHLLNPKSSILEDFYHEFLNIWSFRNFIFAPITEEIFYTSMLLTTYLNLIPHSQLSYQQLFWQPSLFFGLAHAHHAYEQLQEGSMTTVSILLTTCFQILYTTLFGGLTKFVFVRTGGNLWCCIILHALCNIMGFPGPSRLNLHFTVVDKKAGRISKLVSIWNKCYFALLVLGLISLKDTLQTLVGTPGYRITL
eIF4H FP inh: inhibitors of RNA binding by human eIF4H; Q15056; eIF4H fluorescence polarization binding assay; inhibition, % at 35 µM; 290,000 tested, 0.94% active;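 active = 50% or more with normal probe brightness, or confirmed in later tests; inconclusive = above 50% with abnormal brightness, or retests that disagree; inactive = below 50% or failed in later tests; about a fifth of its hits are not listed in these tables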;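 note: calls also rest on retests at 20 µM and on dose response follow-up; 0% = protein and probe with vehicle and 100% = probe without protein; strong numbers were not always called active; many hits fall short of the cut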
eIF4H FP inh retest: further read-out of eIF4H FP inh, marked with its call; inhibition, %; compound at 20 µM; confirmation average;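 mean of two retest wells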
PABP polyA inh retest: recorded beside PABP polyA inh, whose call it bears; inhibition, %; compound at 20 µM; confirmation repeats;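 mean of two retest wells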
MT1-MMP act inh RFP: recorded beside MT1-MMP act inh, whose call it bears; RFP signal change, %; measured here: RFP expression control read;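 0 = vehicle wells; hits needed this value within 50% of zero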
Starred values were filed as active, the others as inactive; i = inactive; ? = inconclusive; nt = not tested or not shown.

SMILES | PABP polyA inh | MT1-MMP act inh | MT1-MMP act inh RFP | CSC inhib | HIV Env fusion | UUG fidelity | Rce1 inhib | eIF4H FP inh | others
COc1ccc(-c2nc(SCc3ccccc3)n(S(C)(=O)=O)n2)cc1 | -1 | 1 | -2 | 4 | -77 | -13 | i | -7
CC(NC(=O)c1ccco1)C(c1cccs1)N1CCN(c2ccc(F)cc2)CC1 (stereo unspecified) | 9 | 1 | -7 | 8 | nt | nt | i | 10
O=C(C[C@H]1C/C=C\C[C@H](Cc2ccc(F)cc2)C(=O)O[C@@H](c2ccccc2)CNC1=O)N[C@@H](CO)Cc1ccccc1 | nt | -5 | -6 | nt | 0 | -28 | nt | nt
O=C(C1CCCO1)N1CCN(S(=O)(=O)c2ccccc2)CC1 (stereo unspecified) | 3 | 2 | -3 | -10 | nt | nt | i | -1
C=CCN(CC=C)C(=O)COC(=O)c1n[nH]c2ccccc12 | 89 | 1 | 5 | -10 | -5 | nt | i | 8 | eIF4H FP inh retest=24;PABP polyA inh retest=32
O=c1nc(-c2ccccc2)c2cc(Cl)ccc2[nH]1 | 2 | 1 | 2 | -3 | nt | -15 | i | 8
CCCCc1cc(=O)oc2cc(OCC(=O)N3CCc4ccccc43)ccc12 | 0 | 3 | 4 | 17 | 28 | -17 | i | -9
Cc1cc(C)c(Cn2cnc(-c3ccc([N+](=O)[O-])cc3)c2)c(C)c1 | -8 | -8 | -4 | 30 | nt | -15 | i | -10
COc1cccc(CC(=O)OCC(=O)NC(Cc2ccccc2)C(C)=O)c1 (stereo unspecified) | nt | -3 | 3 | -5 | 11 | -12 | i | nt
CCOc1ccc(NCc2nc3ccccc3n2CCOc2ccccc2)cc1 | -3 | 3 | 2 | 7 | 4 | 48 | i | 3
CC(C)(C)C1=Nn2c(nnc2-c2ccccn2)SC1 | -3 | -1 | 6 | -4 | -102 | -8 | i | 1
Cc1ccc(C(=O)O)cc1NC(=O)CN1C(=O)C2C3c4ccccc4C(Br)(c4ccccc43)C2C1=O (stereo unspecified) | 7 | 3 | 5 | 2 | -61 | nt | i | 0
CSc1n[nH]c2nc3c(c(=O)n12)C1(CCCCC1)Cc1ccccc1-3 | 0 | -3 | -16 | 4 | 17 | -11 | i | 2
Clc1nssc1=Nc1nncs1 | nt | 2 | 3 | -4 | -27 | -3 | nt | nt
Cc1ccc(C2=NN(CC(=O)NCc3ccccn3)C(=O)CC2)cc1 | -2 | 0 | -1 | -7 | 0 | nt | i | -10
COc1ccc(NC(=O)c2ccco2)c2ccccc12 | 2 | 7 | 6 | -7 | -5 | -5 | i | -4
CC1(c2ccccc2)CC(C)(C)N(C(N)=O)c2ccccc21 (stereo unspecified) | 12 | -2 | 1 | -10 | 13 | -14 | i | 0
CC(C)C(=O)N1CCN(c2ccccc2NC(=O)COc2ccc(C3CCCCC3)cc2)CC1 | 4 | -3 | -9 | 43 | 52 | -20 | i | 1
Cc1ccc(S(=O)(=O)N2CC(C)N(S(C)(=O)=O)C2)cc1 (stereo unspecified) | 2 | 0 | 2 | 0 | -5 | -21 | i | -6
O=C(NC1CCCCC1)c1cc(Cl)ccc1[N+](=O)[O-] | 8 | -4 | 0 | -1 | -47 | -27 | i | 1
c1ccc2c(CN3CCCCC3)csc2c1 | 23 | 2 | 6 | -2 | 0 | nt | i | 6
Cc1ccc(S(=O)(=O)N(CC(=O)Nc2cccc([N+](=O)[O-])c2)Cc2ccc(Cl)cc2)cc1 | 6 | -9 | -11 | 42 | -4 | nt | i | -14
Cn1c(=O)c2cc(NC(=O)CCc3cccnc3)ccc2n1Cc1ccc(F)cc1 | nt | -2 | -12 | nt | 36 | -13 | nt | nt
Cc1ccc(CNc2ncnc3cc(Cl)ccc23)o1 | 10 | 1 | -17 | -22 | nt | -12 | i | 12
COC(=O)C(C)n1nnc2sc(-c3ccccc3)cc2c1=O (stereo unspecified) | 3 | 3 | 3 | -1 | -10 | nt | i | -7

Remaining list, next part:
SMILES | PABP polyA inh | MT1-MMP act inh | MT1-MMP act inh RFP | CSC inhib | HIV Env fusion | UUG fidelity | Rce1 inhib | eIF4H FP inh | others
COc1ccc(-c2noc(CN(C)C(=O)c3ccoc3C)n2)cc1 | 3 | -1 | -3 | 6 | 1 | -13 | i | 20
COCCNc1nc(Nc2ccc(C(=O)OC)cc2)c2sccc2n1 | nt | 9 | -8 | nt | -10 | -29 | nt | nt
CCCCCCn1c(=O)n2n(c1=O)[C@@H]1CN(S(=O)(=O)c3ccc(C)cc3)C[C@]1(O)[C@@H](OC(=O)NCc1ccccc1)C2 | nt | 5 | -7 | nt | -4 | 0 | nt | nt
CCOC(=O)Cc1cnc(NC(=O)c2ccccc2)s1 | -11 | 2 | -1 | -13 | nt | -18 | i | -3
Cc1ccc(S(=O)(=O)Nc2cccc(C(=O)NCC3(N4CCCCC4)CCCCC3)c2)cc1F | nt | 2 | 3 | -16 | 10 | nt | i | nt
Cc1cc(NC(=O)CCC(=O)N(c2ccccc2)C2(C(=O)NC3CCCCC3)CCCC2)no1 | -5 | -3 | -2 | -4 | nt | -10 | i | -1
COCC(C)NC(=O)c1cc2cccc([N+](=O)[O-])c2[nH]1 (stereo unspecified) | -1 | 5 | -1 | -9 | -5 | nt | i | -12
CCC(C)(C)NC(=O)C(c1ccncc1)N(Cc1cccs1)C(=O)Cn1nnc2ccccc21 (stereo unspecified) | -1 | -4 | -3 | -14 | nt | -11 | i | -4
O=C(N[C@H](CO)Cc1ccccc1)c1ccco1 | nt | 1 | 6 | -22 | 0 | -19 | i | nt
CC(C)N1CCc2c(sc(NC(=O)CN3C(=O)c4ccccc4C3=O)c2C(N)=O)C1 | 5 | -1 | 4 | -4 | 4 | nt | i | 10
COc1ccc([N+](=O)[O-])cc1N(CC(=O)NCCSc1ccccc1)S(C)(=O)=O | -3 | 0 | 1 | -3 | 9 | nt | i | 0
Cc1nc(Nc2ccc(Cl)cc2)c(C#N)c(=O)[nH]1 | 14 | 0 | -2 | -4 | -304 | -13 | i | 4
COCCNS(=O)(=O)c1cc(OC)ccc1OC | -11 | 3 | 9 | -12 | -1 | nt | i | -3
Cc1ccccc1NC(=S)N(Cc1ccco1)C(C)c1ccccn1 (stereo unspecified) | 11 | -1 | 1 | -6 | -2 | nt | i | -2
C=CCOc1cccc(C2c3c(oc4ccc(F)cc4c3=O)C(=O)N2CCCN2CCOCC2)c1 (stereo unspecified) | 0 | 1 | 5 | 6 | -45 | -3 | i | -2
Cc1ccc(COc2ccc(/C=N/NC(=O)CN3CCCCC3)cc2)cc1 | -2 | -1 | 1 | -14 | -23 | nt | i | -7
Cc1cc(C(=O)OCC(=O)N2CCC(c3ccccc3)=N2)ccc1[N+](=O)[O-] | nt | -1 | 1 | -9 | -11 | -8 | i | nt
COc1ccc(NC(=O)C2CCN(S(=O)(=O)c3ccc4c(c3)CC(C)N4C(C)=O)CC2)cc1OC (stereo unspecified) | -6 | 3 | -4 | 9 | 2 | -8 | i | -10
O=C(C/C(=N\NC(=O)c1ccccc1Br)C(F)(F)F)c1cccs1 | 6 | 6 | 1 | 30 | nt | nt | i | 3
CC1(C)CC(NC(=O)c2cc(Cl)ccc2Cl)CC(C)(C)N1 | -4 | -3 | 0 | -4 | -213 | 2 | i | 3
O=C(NCCc1ccccc1)Nc1ccc(Cl)cc1 | -5 | 5 | 7 | -7 | -41 | nt | i | -8
COc1ccc(C(=O)NC2CCSc3ccccc32)cc1S(=O)(=O)N1CCOCC1 (stereo unspecified) | nt | -2 | 1 | -10 | nt | nt | i | nt
COc1c(F)c(F)c(C(=O)Nc2ccc(NC(=O)c3ccco3)cc2)c(F)c1F | -9 | 3 | -2 | 12 | nt | -21 | i | -9
O=c1oc2c(CN3CCCCC3)c(O)ccc2c2c1CCCCC2 | -8 | 5 | 5 | -7 | -49 | -8 | ? | -2
Cc1cccc(N2CCN(S(=O)(=O)c3ccc(-c4cc(C)no4)s3)CC2C)c1 (stereo unspecified) | -4 | 0 | -1 | 25 | -6 | -11 | i | -17

Next results
SMILES | PABP polyA inh | MT1-MMP act inh | MT1-MMP act inh RFP | CSC inhib | HIV Env fusion | UUG fidelity | Rce1 inhib | eIF4H FP inh | others
COc1ccc(C(=O)NC(=O)COC(=O)C2CC2C)cc1 (stereo unspecified) | nt | -1 | 1 | -3 | -1 | -7 | nt | nt
CCc1nc2c(OCc3cccc(Cl)c3)cccn2c1N(C)C(=O)c1ccc(OC)cc1 | nt | -7 | -7 | nt | 7 | -16 | nt | nt
O=C(COC(=O)Cc1cccc(C(F)(F)F)c1)NC(=O)NC1CCCC1 | nt | -2 | 1 | -16 | -1 | -8 | nt | nt
Cc1ccccc1-n1c(Cn2c(=O)sc3ccccc32)nnc1SCC(=O)N1CCCC1 | 0 | 1 | 3 | -1 | 10 | -11 | i | 4
O=C(COc1ccc(Br)cc1)NNC(=S)NCc1ccccc1 | 16 | 5 | -2 | -11 | 0 | -27 | i | 16
C=CCOc1c2ccc(C(=O)NCc3ccc(C)cc3)cc2nn1C | -5 | 1 | 0 | -33 | -20 | -19 | i | -1
CCOC(=O)c1c(C(C)(C)C)oc2ccc(OCC#N)cc12 | -1 | 0 | 4 | nt | nt | -12 | i | -3
CCn1cc(CCC(=O)NCc2cccc(OC)c2OC)c2ccccc21 | 19 | 4 | 2 | -8 | 13 | -16 | i | 6
CCCCNC(=S)N(C)/N=C/c1c(F)c(F)c(F)c(F)c1F | 1 | -5 | -2 | 47 | 1 | nt | i | -5
O=C(NCc1ccccn1)c1cc(-n2cnnc2)ccc1Cl | -4 | -3 | 0 | -11 | -27 | -19 | i | -1
COC(C[C@@H](O)CC(=O)[C@H](C)OCc1ccccc1)OC | -10 | 6 | 5 | nt | 5 | -4 | i | -1
Cc1ccc(C2CC(C(F)(F)F)n3ncc(C(=O)NCc4ccco4)c3N2)cc1 (stereo unspecified) | 6 | 7 | 4 | nt | 6 | -14 | i | -4
CN(C)c1cccc(-c2nnc(SCCCC#N)o2)c1 | 6 | -2 | -3 | -3 | -180 | -42 | i | 4
CC(C)CCN(CCC(C)C)CC(O)Cn1c2ccccc2c(=O)c2ccccc21 (stereo unspecified) | -2 | 2 | -4 | -1 | -36 | -7 | i | 2
CCc1cccc(C)c1NC(=O)CSc1nc2ccc(N3C(=O)c4ccccc4C3=O)cc2s1 | 2 | -4 | -4 | -10 | nt | nt | i | 0
CCc1ccc(NC(=O)NCCCN2CCCC2=O)cc1 | -12 | 4 | 5 | -5 | -11 | -5 | i | -1
COc1ccc(-n2c(C)cc(/C=C3\SC(=S)NC3=O)c2C)cc1 | 22 | -21 | 1 | 10 | -18 | nt | i | 44
COc1ccc(C(=O)N=c2c(C#N)cc3c(=O)n4cccc(C)c4nc3n2Cc2ccco2)cc1 | 35 | nt | nt | nt | nt | nt | i | 22
O=[N+]([O-])c1ccc(N2CCN(CC(O)COc3ccccc3)CC2)cc1 (stereo unspecified) | 2 | 4 | -10 | 4 | 16 | nt | nt | 9
CC(=O)Nc1ccc(C(=O)N2CCN(C(=O)c3ccco3)CC2)cc1 | -6 | -3 | 7 | nt | nt | -14 | i | 5
Nc1nc2c(ncn2[C@@H]2O[C@H](CNCc3ccc(Oc4cc(-n5cccn5)ncn4)cc3)[C@@H](O)[C@H]2O)c(=O)[nH]1 | nt | 0 | 4 | nt | -60 | -17 | nt | nt
Clc1ccc(CN2CCC(c3ccccc3)CC2)cc1 | -9 | 5 | 6 | 18 | -5 | -27 | i | -4

Outcome played no part in choosing rows. About 2.9% of those tested had a hit in this group.
